ALR inh = blocks human ALR sulfhydryl oxidase activity; purified ALR, DTT oxidation, H2O2 HRP-luminol luminescence; inhibition, % (concentration not given with the values); 3.8% of 290,000 active; AID 485317;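 active = mean and each replicate at 75% or more; inconclusive = only one of the two met; inactive = neither met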;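 note: stock transfer was 7.5 nL into about 7.5 µL; 0% = neutral wells and 100% = wells with inactivated enzyme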
Target sequence (P55789 whole entry, looked up): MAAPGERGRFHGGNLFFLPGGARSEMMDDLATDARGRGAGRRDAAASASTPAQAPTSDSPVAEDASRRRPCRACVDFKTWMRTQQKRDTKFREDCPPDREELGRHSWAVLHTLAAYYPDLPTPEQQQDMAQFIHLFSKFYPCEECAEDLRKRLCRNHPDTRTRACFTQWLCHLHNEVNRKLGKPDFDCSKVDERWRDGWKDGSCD
HNF4A DNA FP = change in binding of human HNF4 alpha to DNA | activity change, % at 10 µM | 0.3% of 360,000 active | HNF4a-FITC DNA binding, fluorescence polarization, 1 h | P41235; in the data active = activity change above about 30%, passing the limit was not always enough;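 note: controls were the assay level and a saturating level of protein; the project sought stronger binding though the title names inhibitors; some compounds called inactive have numbers as strong as hits; positive values seem to mean higher polarization but the record does not say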
Target sequence (P41235 whole entry, looked up): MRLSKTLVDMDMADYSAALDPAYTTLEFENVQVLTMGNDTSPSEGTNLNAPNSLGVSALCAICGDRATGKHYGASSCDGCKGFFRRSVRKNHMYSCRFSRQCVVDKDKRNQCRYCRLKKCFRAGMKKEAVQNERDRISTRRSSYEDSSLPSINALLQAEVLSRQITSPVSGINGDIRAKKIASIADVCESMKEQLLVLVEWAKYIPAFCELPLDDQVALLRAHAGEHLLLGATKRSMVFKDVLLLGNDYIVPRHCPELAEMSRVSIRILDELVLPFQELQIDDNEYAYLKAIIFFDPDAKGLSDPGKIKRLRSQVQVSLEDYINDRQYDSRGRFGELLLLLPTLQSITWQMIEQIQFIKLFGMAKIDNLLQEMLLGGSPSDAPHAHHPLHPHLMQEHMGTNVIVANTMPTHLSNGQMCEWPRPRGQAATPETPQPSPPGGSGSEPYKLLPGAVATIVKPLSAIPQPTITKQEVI
Vif TR-FRET = inhibitors of Vif binding to APOBEC3G peptide, primary screen, biochemical, TR-FRET, GST-Vif 1-94, biotin-A3G peptide, dose response retest (AID 1117319); TR-FRET GST-Vif / biotin-A3G peptide binding; higher % means a stronger effect; test concentration not given here; strong numbers were not always called active; inhibition, %; hits with a dose series show IC50 in µM; 0.57% of 260,000 active;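 active = above the screen mean plus three standard deviations and confirmed in dose response; inconclusive = results disagree or hit not tested in dose response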;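 note: Vif residues 1-94 fused to GST binding biotinylated APOBEC3G peptide 110-148; 0% = full assay without inhibitor and 100% = GST in place of GST-Vif; retest series ran down from 100 µM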
RanGTP-Imp inh = disruptors of Ran-importin-beta complex formation – biochemical, FRET, CFP-Ran, YFP-importin-beta, homogeneous, primary screen; 1.1% of 300,000 active; inhibition, % (concentration not given with the values); cell-free CFP-Ran/YFP-importin-beta FRET ratio;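 active = most replicates above 15%; inconclusive = exactly half above 15%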;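 note: 0% = DMSO wells and 100% = Ran loaded with GDP instead of GTP; wells of about 40 µL received 100 nL stock; the first replicate is given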
Beta2AR agonist = agonists of human beta-2 adrenergic receptor inducing internalization; Am2.2-beta2AR cells, FAP receptor internalization, flow cytometry; reference of the scale not given here; AID 504454; response, % (concentration not given with the values); 0.43% of 340,000 active;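 active = response above a set limit, near 3 SD of response in nonfluorescent compounds, cut at about 42% in these data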;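 note: stock transfer was 100 nL into about 11 µL; a reference agonist was the positive control; negative values mostly stem from fluorescent compounds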
Target sequence (P07550 whole entry, looked up): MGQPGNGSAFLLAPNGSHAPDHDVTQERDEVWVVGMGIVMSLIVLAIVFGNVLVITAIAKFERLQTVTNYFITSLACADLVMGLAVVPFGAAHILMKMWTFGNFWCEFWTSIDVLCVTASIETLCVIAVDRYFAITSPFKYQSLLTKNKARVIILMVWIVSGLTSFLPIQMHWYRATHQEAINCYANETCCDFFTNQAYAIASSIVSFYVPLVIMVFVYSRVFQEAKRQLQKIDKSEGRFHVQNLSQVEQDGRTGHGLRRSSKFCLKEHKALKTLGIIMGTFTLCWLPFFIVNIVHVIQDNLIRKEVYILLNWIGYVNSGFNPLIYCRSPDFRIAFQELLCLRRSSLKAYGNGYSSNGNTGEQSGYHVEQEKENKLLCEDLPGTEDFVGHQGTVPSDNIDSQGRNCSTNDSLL
Calb FLC = affects C. albicans growth with fluconazole; C. albicans CaCi-2 (fluconazole-resistant clinical isolate) + fluconazole, Alamar Blue growth, 48 h; growth inhibition, % (concentration not given with the values); 0.57% of 300,000 active; AID 1979;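 active = most replicates above 75%; inconclusive = exactly half above 75%; inactive = most below 75%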;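 note: all wells also contain fluconazole at 8 µg/ml as a sub-toxic cotreatment; 0% = median of DMSO wells and 100% = median of geldanamycin control wells; wells of about 8 µL received 7.5 nL stock; the first replicate is given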
LANA-H2A inh = blocks KSHV LANA binding to histone H2A/H2B; 0.6% of 320,000 active; cell-free LANA-H2A/H2B peptide, fluorescence polarization; inhibition, % (no concentration beside the values); in the data active = inhibition mostly above about 10%, no sharp cut-off; inactive = mostly below about 6.7%;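 note: stock transfer was 7.5 nL into about 10 µL; 0% = median of vehicle wells and 100% = median of positive control wells; one replicate is shown; the record names a cut of 25% in any replicate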
* marks the source's active call; other numbers are inactive results; ? = inconclusive; . = no result given; & = joins results of further samples.

SMILES	ALR inh	HNF4A DNA FP	Vif TR-FRET	RanGTP-Imp inh	Beta2AR agonist	Calb FLC	LANA-H2A inh
CCOC(=O)c1sc2nccc(N(C)C)c2c1N=CNOC	-5	0.9	-1%	6.7	3	6	-7.4
CC(C)(C)NC(=O)CN(C(=O)C(=O)Nc1ccc2c(c1)OCCO2)C1CCCC1	3	-4.8	.	-0.3	1	-21	4.5
CCC(=O)Nc1nc(C)c(-c2csc(Nc3ccc(C(=O)O)cc3)n2)s1	.	1.8	-6%	-3.8	-7	-1	.
COc1ccc([N+](=O)[O-])cc1-n1cnnn1	.	-0.7	.	-3.1	-1	11	4.8
CCOC(CNC(=O)c1ccc2c(c1)ncn2-c1ccc(F)c(F)c1)OCC	.	1.8	-4%	0.8	-1	35	-1.5
COCCCNC(=S)NNC(=O)c1ccc(S(=O)(=O)N2CCC(C)CC2)cc1	38	-0.5	1%	-1.2	2	-4	5.9
CCN(CC)CCc1c(C)[nH]c(C(=O)OCc2ccccc2)c1C	-25	3.9	11%	3.0	1	4	-2.0
CCOc1ccc2cc(C3CC(c4ccco4)=NN3S(C)(=O)=O)c(=O)[nH]c2c1 (stereo not given)	10	0.4	29%	2.9	-1	-1	-3.3
Cc1cccc(C)c1NC(=O)CN1CCN(C(=O)c2ccc(OCc3cn4ccccc4n3)cc2)CC1	-2	-0.9	-8%	.	9	.	5.7
O=C(c1cccs1)N1CCCC(c2nc3c(nnn3Cc3cccc(Cl)c3)c(=O)[nH]2)C1 (stereo not given)	.	-1.3	.	-5.2	-3	10	-3.0
O=C(/C=C/c1ccc(Br)o1)Nc1nccs1	.	-4.8	10%	0.4	14	-2	19*
C/C(CC(=O)Nc1ccc(F)cc1F)=N\NC(=O)C(=O)N1CCCCC1	15	.	.	-1.1	.	5	3.1
COc1cc(C2NC(=O)c3ccccc3O2)cc(OC)c1OC (stereo not given)	.	0.0	-1%	-1.8	-4	12	0.1
O=C(NCc1ccco1)C1CCCN1S(=O)(=O)c1ccc2ccccc2c1 (stereo not given)	-3	-2.9	0%	0.3	-12	7	-12
COc1ccc(CNc2ncnc3sccc23)cc1OC	1	0.2	.	7.9	2	7	-0.5
COc1cccc(C(=O)OCC(=O)N2CCC(Cc3ccccc3)CC2)c1OC	-5	-0.4	.	.	-2	.	0.8
CCN(C(=O)COC(=O)Cc1ccc(F)cc1)c1c(N)n(Cc2ccccc2)c(=O)[nH]c1=O	0	-2.9	-6%	.	0	.	-13
CCOc1ccc(CCNC(=O)C2CC=CCC2C(=O)OC(C)C)cc1OCC (stereo not given)	-24	-3.7	1%	?	-1	10	1.3
Cc1nn(Cc2cccc(C(=O)Nn3cc([N+](=O)[O-])cn3)c2)c(C)c1[N+](=O)[O-]	-3	5.5	0%	-0.6	-1	-4	-8.6
CCN(CC)C(=O)CSc1nc(OC)cc(=O)[nH]1	-3	1.7	2%	-0.8	2	4	-1.7
CCOC(=O)c1nn(-c2ccc(F)cc2)c(C)c1C(C)=O	-31	0.4	5%	0.0	-1	-3	-4.1
N#Cc1cc2ccccc2nc1SCC(=O)Nc1ccc(S(=O)(=O)N2CCCC2)cc1	-22	11	-58%&-29%	-1.3	3	0	0.7
O=C(CCOc1ccccc1)Nc1ccccc1	-5	1.3	-2%	3.8	0	-2	2.3
Cc1ccc(NNC(=O)c2cc(C)on2)c(C)c1	?	0.6	.	0.8	0	4	2.9
Cc1nc2ccccc2c(=O)n1/N=C/c1ccccc1Cl	-1	0.3	.	-5.2	6	6	0.9
O=C(COC(=O)c1ccc(Cl)c(S(=O)(=O)NCc2ccccc2)c1)NCC1CCCO1 (stereo not given)	3	1.2	-6%	3.6	0	-1	-0.7
CC1=Nn2c(nc(-c3ccccc3)c2-c2ccccc2)N(CC(N)=O)C(=O)C1	-12	3.4	5%	-6.1	-2	-9	2.8
c1ccc(N=C(c2cccs2)N2CCOCC2)cc1	-4	1.4	-2%	10	-1	6	-1.2
CC(C)Oc1ccc(C2CC(=O)N(c3ccccc3)C2=O)cc1 (stereo not given)	7	2.4	-1%	-0.8	-1	-2	3.2
O=C(O)CN1C(=O)/C(=C\c2cc(Br)ccc2OCc2ccc(F)cc2)SC1=S	66	-0.2	-3%	1.3	2	2	-3.0

Full records, quoted from the list. Values in the order: ALR inh | HNF4A DNA FP | Vif TR-FRET | RanGTP-Imp inh | Beta2AR agonist | Calb FLC | LANA-H2A inh
CC(C)Oc1ccc(C2CC(=O)N(c3ccccc3)C2=O)cc1 (stereo not given) is entered as 7 | 2.4 | -1% | -0.8 | -1 | -2 | 3.2
CCOC(=O)c1nn(-c2ccc(F)cc2)c(C)c1C(C)=O is entered as -31 | 0.4 | 5% | 0.0 | -1 | -3 | -4.1
Cc1nc2ccccc2c(=O)n1/N=C/c1ccccc1Cl is entered as -1 | 0.3 | . | -5.2 | 6 | 6 | 0.9
c1ccc(N=C(c2cccs2)N2CCOCC2)cc1 is entered as -4 | 1.4 | -2% | 10 | -1 | 6 | -1.2

More structures
SMILES	ALR inh	HNF4A DNA FP	Vif TR-FRET	RanGTP-Imp inh	Beta2AR agonist	Calb FLC	LANA-H2A inh
Cn1cccc1/C=C1\SC(=O)N(c2ccccc2)C1=O	-37	2.7	.	3.7	7	-33	-6.8
Cc1nc2ccc(NC(=O)c3ccc(Cl)c(S(=O)(=O)N(C)c4ccccc4)c3)cc2s1	-4	3.7	?	2.3	31	-18	-4.8
COc1ccc(C(=O)c2c(C)c3cc(C)ccc3n2CC(O)CN2CCOCC2)cc1 (stereo not given)	-8	-1.2	-3%	?	8	-9	-15
CC(=O)c1c(C)n([O-])c2cc(F)c(F)cc2[n+]1=O	-26	-1.1	7%	-3.4	14	31	9.9
O=C(NCC1OCCc2ccccc21)c1cc(COc2ccc(F)cc2Cl)on1 (stereo not given)	-3	3.0	.	0.6	-7	-6	1.2
C/C(Cc1ccccc1)=N\NC(=O)CNC(=O)c1cccc(Br)c1	5	0.5	4%	2.2	4	-4	-4.2
Cc1nc(N)nc(N)c1-c1ccc([N+](=O)[O-])cc1	.	-0.5	-4%	.	1	.	.
COc1ccc2c(c1)OCC(O)(c1ccccc1)C2=O (stereo not given)	.	3.2	-8%	.	-9	.	.
CN1CCN(c2nc(-c3ccc(C(C)(C)C)cc3)nc3ccccc23)CC1	-1	1.6	-14%	0.6	14	13	1.2
CN(Cc1cnn(C)c1)C(=O)CC1C(=O)NCCN1Cc1cccc(Oc2ccccc2)c1 (stereo not given)	21	2.5	-2%	1.6	-10	-2	2.4
Cc1cccc(NC(=O)C(=O)N/N=C/c2ccncc2)c1	-9	0.1	15%	1.0	-7	-33	4.0
CCOc1ccc(OCc2ccc(C(=O)NC(C)(C)C)o2)cc1	-8	1.7	.	2.7	-4	-4	2.6
Cc1cc(C)c2nc(NCCCNC(=S)NCCCN(C)C)c(C#N)cc2c1	1	-0.3	17%	-2.5	43*	12	-6.2
O=C(CN1C(=O)CC(c2ccccc2)S(=O)(=O)c2ccccc21)N1CCCCC1 (stereo not given)	-8	6.1	.	0.8	3	16	-2.2
CCC(C)C1Nc2ccc(C(=O)NCCc3ccc(OC)c(OC)c3)cc2NC1=O (stereo not given)	0	1.6	.	-2.2	5	8	0.7
Cc1c(C(=O)N2CCN(c3ccccn3)CC2)oc2c1C(=O)CC(C)(C)C2	-7	1.9	1%	0.0	-8	1	6.4
C/C(Cn1cnc([N+](=O)[O-])n1)=N\NC(=O)c1ccc(O)cc1O	5	2.5	?	4.2	-2	-18	2.8
CC1C(=O)Nc2ccccc2N1C(=O)c1cccc(C(F)(F)F)c1 (stereo not given)	-3	0.3	-2%	0.1	-4	0	3.9
CCOC(=O)c1c(N)n(C2CC(C)(C)NC(C)(C)C2)c2nc3ccccc3nc12	-11	1.5	-3%	?	14	11	-0.6
CCCCn1c(N)c(N(CC(C)C)C(=O)c2ccc(S(=O)(=O)N(CC)c3ccccc3)cc2)c(=O)[nH]c1=O	.	-1.4	9%	-1.6	2	-8	.
O=C1OCCC1Sc1nnc(-c2ccco2)n1-c1ccccc1 (stereo not given)	-5	-0.1	-8%	4.5	-6	-18	-1.0
NS(=O)(=O)c1cccnc1Nc1cccc(Cl)c1Cl	5	-1.2	-4%	0.5	2	-6	-3.3
O=C1C2CCCN2C(c2cccc(Br)c2)N1c1ccc(F)cc1 (stereo not given)	-20	1.9	14%	?	7	-4	-0.7
CCOC(=O)N1CCN(CC(O)c2ccc3cc[nH]c3c2)CC1 (stereo not given)	-4	0.7	0%	6.6	-9	12	-0.5
O=C(CSc1nc2cc(Cl)ccc2o1)c1cccs1	25	1.2	-15%	-0.2	2	-14	3.0
CC(=O)c1cccc(NC(=O)c2ccc3ccccc3c2)c1	.	0.0	.	-2.4	8	-7	0.2
Cc1ccc(S(=O)(=O)N2CCCCC2)cc1C(=O)NCc1ccccn1	-10	-1.6	6%	0.9	0	2	1.0
O=P(O)(OCc1ccccc1)OCc1ccccc1	47	8.2	.	.	-6	.	-0.6
COc1ccccc1NC1=CC(=O)CC(c2ccccc2)C1 (stereo not given)	-1	0.2	11%	55*	0	11	4.1
COc1ccccc1-n1c(SCc2cc(=O)oc3cc(O)ccc23)nc2ccccc2c1=O	-9	1.5	19%	-1.5	0	-1	-6.8
COCCNCC(=O)NCC12CC3CC(CC(C3)C1)C2	5	-2.2	10%	6.6	-5	-14	0.0
CCC(C)(C)NC(=O)C(c1ccccc1Cl)N(C(=O)CCC(=O)Nc1cc(C)on1)c1ccc(NC(C)=O)cc1 (stereo not given)	-4	2.0	.	0.4	0	-5	2.7
COc1ccc(C2=NOC(Cn3nc(-c4ccccc4)cc3C(=O)NCc3ccco3)C2)cc1 (stereo not given)	1	3.8	.	.	-8	.	-0.4
COc1ccc(-c2nc3n(n2)C(=O)CC(c2ccco2)S3)cc1 (stereo not given)	.	0.2	?	-6.0	14	-23	2.2
COc1ccc(C(=O)N(c2ccccn2)C2CCCCC2)c(OC)c1	-1	-0.6	8%	-2.0	-3	5	-1.2
Clc1ccc(CSc2nnc(-c3sccc3-n3cccc3)o2)cc1	3	-2.5	14%	0.6	5	-3	-3.1
Cc1cc(OC(C)C(=O)NCCCN2CCOCC2)c2c(C)cc(=O)oc2c1 (stereo not given)	-9	-2.8	30%	?	5	20	5.9
CC(=O)OCC1(C)CN(c2ccccc2)N(C(C)=O)C1=O (stereo not given)	57	-0.6	.	2.4	-2	-29	-0.3
O=C(O)CC(C(=O)O)N1C(=O)/C(=C/c2ccc(-c3nc4ccccc4s3)o2)SC1=S (stereo not given)	49	8.7	6.4µM*	11	7	3	-4.5
CCOc1ccc(NC(=O)c2ccccc2-c2ccccc2C(=O)O)cc1	4	4.0	.	-1.3	4	-27	1.7
CC(NC(=O)CCN1C(=O)c2ccccc2C1=O)c1ccccc1 (stereo not given)	1	-2.2	3%	?	1	-5	-1.6
CC(NC(=O)CN1C(=O)NC2(CCCCCCC2)C1=O)c1ccccc1 (stereo not given)	.	0.9	.	.	-3	.	5.1
CCC(=O)c1ccc(OC(=O)c2ccc(Br)o2)cc1	28	-1.3	-7%	1.2	1	-4	-3.3
Cc1ccc(NC(=O)COC(=O)CCC(=O)c2cccs2)cc1C	4	-1.3	-7%	-2.2	0	7	1.2
c1ccc(-c2cn(-c3ccccc3)c3[n+]2CCS3)cc1	-1	-5.0	.	3.2	-10	2	3.6
Cc1ccc(C(=O)CCC(=O)Nc2cccnc2)cc1C	-6	-3.9	-5%	-3.8	-1	2	0.6
Cc1cccc(-n2nc(C)c3c2NC2=C(C(=O)CCC2)C3c2ccccn2)c1 (stereo not given)	-12	1.6	4%	2.9	-3	-16	0.6
Cc1ccc(S(=O)(=O)c2n[nH]n3c2nc(=O)c2ccccc23)cc1	-2	-0.4	2%	?	0	54	4.1

Screening results: PubChem BioAssay, several laboratories
